# VACV Venus inh = vaccinia inhibition (Venus reporter); Vaccinia virus Venus reporter expression, fluorescence; AID 720580; Potency, µM (series often up to 36.5 µM), without a hit: at the highest dose activity change, negative = inhibition, most hits filed as inhibitors; 0.46% of 330,000 active; active means well fitted inhibition curve with a large enough effect; inconclusive means small, poorly fitted or top-dose-only effect; inactive means no such curve, though single readings can be large or run the other way; tested in A549 cells; note: nearly all actives have a fitted effect of over 30% in size; inactives centre near -10
# VACV mCherry inh = vaccinia inhibition (mCherry reporter). Vaccinia virus mCherry reporter infection, fluorescence; about a quarter of the inactives have no number. Potency, µM (top dose mostly 36.5 µM), for inactives: at the highest dose activity change, negative = inhibition, actives largely listed as inhibitors. 0.63% of 310,000 active. AID 720579; active = well fitted inhibition curve with a large enough effect; inconclusive = small, poorly fitted or top-dose-only effect; inactive = no such curve, though single readings can be large or run the other way; tested in A549 cells; note: nearly all actives have a fitted effect of over 35% in size; inactives centre near -10
# * hit, by the source's call; i = inactive; ? = inconclusive; · = no result given; & = joins results of further samples; [ ] = another dose, or the depositor's remark. % is set by controls: 0 for no effect and ±100 for the full control effect; potency is the fitted concentration of half-maximal effect.
cpd	compound	VACV mCherry inh	VACV Venus inh
1	Cc1ccccc1Nc1nc(N)nc(COC(=O)CC2CC3CCC2C3)n1 (stereo not given)	i	-8%
2	CC(C)[C@H]1CC2C3CC=C4C[C@@H](O)CC[C@]4(C)C3CC[C@]2(C)[C@H]1O (stereo not given in full)	-13%	8%
3	CCN(Cc1cc(=O)n2cc(Cl)c(C)c(Cl)c2n1)Cc1nc2ccccc2c(=O)[nH]1	-9%	-15%
4	CCOC(=O)c1c(SC)nc(SC)c2c1CCC2	·	-11%
5	CN1CCN(C(=O)Nc2ccc([N+](=O)[O-])cc2)CC1	?	-11%
6	Cc1ccccc1-c1noc(-c2ccc(N3CCN(C)CC3)c([N+](=O)[O-])c2)n1	-8%	-7%
7	OCCCc1n[nH]c(=S)n1-c1ccccc1	-1%	-2%
8	COc1ccc(OC)c(C(=O)CSc2nc3c(c(=O)n(C)c(=O)n3C)n2C(C)C)c1	i	-5%
9	O=C(O)CC/C(=N\Nc1ccc([N+](=O)[O-])cc1)c1ccccc1	-1%	-14%
10	O=[N+]([O-])c1cc(-c2csc(NCCc3nc4cc(Cl)c(Cl)cc4n3CCCO)n2)ccc1Cl	-14%	-7%
11	COc1ccc(N=CC2=C(O)CCCC2=O)cc1	-16%	-17%
12	O=C(Cn1ncc2c3ccccc3n(Cc3ccc(F)cc3)c2c1=O)NCCCN1CCCCC1	-5%	-5%
13	Cc1cccc(NC(=O)Cn2cc(C(=O)C3CCCCC3)c3ccccc32)c1C	-22%[7.34 µM]	-18%[7.34 µM]
14	CCn1ncc(NC(=S)Nc2ccc3c(c2)OCO3)c1C(N)=O	-19%	1%
15	COc1ccccc1C(=O)N1CCN(Cc2nc3cc([N+](=O)[O-])ccc3n2C)CC1	i	4%
16	Cc1ccccc1NC(=O)CSc1nc2ccc(NC(=O)c3cccs3)cc2s1	-7%	0%
17	CCCN(CC(=O)Nc1ccccc1C)C(=O)c1ccc(-c2ccccc2)cc1	-15%	-22%
18	Cn1cc(Cl)c(-c2n[nH]c(=S)n2-c2ccccc2)n1	-15%	2%
19	Cc1nn(Cc2noc(C(=O)NCCCn3ccnc3)n2)c(C)c1Br	i	-11%
20	CCOc1ccc(CCNC(=O)C2CCCN(S(=O)(=O)N3CC(C)CC(C)C3)C2)cc1OCC (stereo not given)	-16%	-12%
21	COc1ccccc1NC(=O)CN1CCN(C2c3ccccc3-c3ccccc32)CC1	·	-17%
22	Cc1ccc(CNC(=O)c2ccc(COc3ccccc3)cc2)cc1	i	-14%
23	COc1ccc(-c2cc(C(F)F)n3ncc(C(=O)N4CCN(C(=O)c5ccco5)CC4)c3n2)cc1	?	?
24	COc1ccc(OC)c(NC(=S)NCCSc2ccc(C)cc2)c1	-20%	-6%
25	FC(F)(F)c1cc(-c2ccco2)nc(NCc2ccc(Cl)cc2)n1	-2%	-1%
26	Cc1ccc(C2CN(c3ccccc3)CC2C(=O)c2ccc(F)cc2)cc1 (stereo not given)	·	?
27	O=C(OCC(=O)N1CCCc2ccccc21)c1cccc(C(F)(F)F)c1	-22%	-7%
28	Cc1nnc(NC(=O)CSc2nnc(CNC(=O)c3ccccc3F)n2C(C)C)s1	-15%	-7%
29	COc1ccc(Cl)cc1NC(=O)Nc1ccc(Br)cn1	i	-12%
30	Cc1nc2nc(SCc3nc4ccccc4[nH]3)[nH]c2cc1Br	-12%	-2%
31	CCOc1ccc(-c2cc(C(=O)N3CCC4(CC3)OCCO4)c3ccccc3n2)cc1	-14%	-5%
32	CCN1C(=O)/C(=C\N(C)C)S/C1=N\S(=O)(=O)c1ccc(C)cc1	-7%	-5%
33	O=C(OCc1ccc([N+](=O)[O-])cc1)C1CC(=O)N(Cc2ccccc2Cl)C1 (stereo not given)	i	-9%
34	COc1ccc(-c2cn3c(n2)sc2cc(C(=O)NC(C)C45CC6CC(CC(C6)C4)C5)ccc23)cc1 (stereo not given)	-13%	1%
35	Cc1cccc(C)c1OCc1cc(C(=O)N2CCC[C@H]2C(N)=O)no1	-16%	-4%
36	NC(=O)[C@@H]1CCCN1Cc1nc(Cc2ccccc2Cl)no1	i	-16%
37	Nc1c(C(=O)NCc2ccco2)nnn1-c1ccccc1	-17%	-11%
38	Cc1ccc(N2C(=O)NC(=O)/C(=C/c3cnc(-c4ccccc4)nc3)C2=O)cc1C	-19%	-5%
39	CN(C)c1nc(Cl)nc(NCCOc2ccccc2)n1	-17%	-8%
40	C[C@@H](c1ccccc1)N1C[C@@H](COCc2ccccc2)Oc2cc(N3CCC[C@H]3C(N)=O)ccc2S1(=O)=O	-20%	-13%

# A different layout for part of the listing above.
10) O=[N+]([O-])c1cc(-c2csc(NCCc3nc4cc(Cl)c(Cl)cc4n3CCCO)n2)ccc1Cl
  VACV mCherry inh: -14%
  VACV Venus inh: -7%
22) Cc1ccc(CNC(=O)c2ccc(COc3ccccc3)cc2)cc1
  VACV mCherry inh: i
  VACV Venus inh: -14%

# Other compounds
cpd	compound	VACV mCherry inh	VACV Venus inh
41	CCC(C)Sc1nc2c(c(=O)[nH]c(=O)n2C)n1Cc1ccc(Cl)cc1 (stereo not given)	·	?
42	Cc1ccc(NCCC(=O)c2cccc([N+](=O)[O-])c2)c(C)c1	-15%	-19%
43	OC(c1ccccc1)c1nc(-c2cncnc2)cs1 (stereo not given)	6%	-7%
44	CCOc1ccccc1NC(=O)COc1ccc2c(c1)OCO2	?	-10%
45	CCOc1ccccc1NC(=S)NC1CCCCC1	-2%	-3%
46	Cc1cccc(OC(C)C(=O)N2CCCc3ccccc32)c1 (stereo not given)	-11%	-5%
47	Cc1cc(NC(=O)CCC(=O)N(CC(=O)NCC2CCCO2)c2cccc(C)c2C)no1 (stereo not given)	-5%	-12%
48	Cc1cc(N2CCN(Cc3cn(C)nc3-c3cccc(Cl)c3)CC2)cc(C)n1	-30%	-28%

# Reprinted at random: 2 entries already listed.
cpd	compound	VACV mCherry inh	VACV Venus inh
47	Cc1cc(NC(=O)CCC(=O)N(CC(=O)NCC2CCCO2)c2cccc(C)c2C)no1 (stereo not given)	-5%	-12%
43	OC(c1ccccc1)c1nc(-c2cncnc2)cs1 (stereo not given)	6%	-7%

# Next compounds.
cpd	compound	VACV mCherry inh	VACV Venus inh
49	c1ccc(CSC2=NCCCN2)cc1	-22%	-22%
50	COc1cc2c(-c3ccc(C)cc3)nc3c(c(C)nn3-c3ccccc3)c2cc1OC	?	?
51	CC[N+](CC)(CC)CCOc1ccc(/C=C/c2ccccc2)cc1	-15%&-12%	-28%&-29%
52	C=CCn1c(O)c(C(C)=NCCc2c[nH]c3ccccc23)c(=O)[nH]c1=O	-3%	-14%
53	C/C(O)=C(/N=O)C(=O)Nc1ccccc1	-11%	-9%
54	COc1cc(C(=O)NC(=S)NNC(=O)c2ccc3c(c2)OCO3)cc(OC)c1OC	-18%[7.34 µM]	-11%[7.34 µM]
55	COc1ccccc1-c1nnc(NC(=O)c2ccc3ncsc3c2)o1	?	-23%
56	O=S(=O)(Nc1ccccc1N1CCOCC1)c1ccc(Cl)s1	-23%	-8%
57	Cc1ccc(-n2ncc(C(=O)NCc3ccccc3)c2C2CCN(C(=O)OC(C)(C)C)CC2)cc1	-10%	-12%
58	O=[N+]([O-])c1ccc(CNc2ccc(F)cc2)s1	i	-10%
59	CCN(CC)C(=O)Cn1cc(C(=O)C(=O)N(C)C2CCN(C)CC2)c2ccccc21	i	-16%
60	Cc1ccccc1-c1cc(C(=O)Nc2sc(C)c(C)c2C(N)=O)c2ccccc2n1	·	-33%
61	Cc1c(C(=O)Nc2ccc(F)cc2)nnn1-c1cccc(C(F)(F)F)c1	-17%	-20%
62	CCCCCc1ccc(-c2ccc(OC)cc2)nc1	-19%	-10%
63	OC(COCc1ccc(Cl)cc1)CN1CC=C(c2ccccc2)CC1 (stereo not given)	?	4%&-19%
64	CC(c1nnc(SCC(=O)Nc2cccnc2Cl)n1-c1ccccc1)N(C)C (stereo not given)	-6%	-8%
65	O=C(O)CN1C(=O)/C(=C\c2ccc(OC(=O)c3ccco3)cc2)SC1=S	60%[activator]	·
66	CCCOc1ccccc1NC(=O)c1c(-c2ccccc2)noc1C	i	-15%
67	O=C(Nc1ccccc1)C(O)C(O)C(=O)Nc1ccccc1 (stereo not given)	2%	1%
68	CCN(C[C@H]1N[C@@](CC)(C(=O)OC)[C@H]2C(=O)N(Cc3ccccc3)C(=O)[C@@H]12)S(=O)(=O)c1ccc(OC(F)(F)F)cc1	?	-18%
69	O=C(Cn1nnc(-c2cccs2)n1)NCc1cccs1	-6%	6%
70	CCOc1ccc2nc(S(=O)(=O)NC(=O)C3(C)CCN3C(=O)c3cccc(F)c3)sc2c1 (stereo not given)	6%	-7%
71	O=C(CN1CCOCC1)OCCCc1ccccc1	-13%	-4%
72	Cc1ccc2nc(-c3ccccc3)c(CC3CCCCC3)n2c1	i	-3%
73	Cc1[nH]c2ccccc2c1C(=O)C(C)OC(=O)C1CCC1 (stereo not given)	-11%	-4%
74	CS(=O)(=O)c1ccc(C2=C(CNC(=O)c3nccs3)[C@H]3CC[C@@H](C2)N3Cc2ccccc2)cc1	-4%	-13%
75	CC(=O)Nc1cccc(Nc2nc(-c3cccs3)nc3ccccc23)c1	7.1µM*	-21%
76	CC1CCN(C(=O)c2ccc(S(=O)(=O)N3CCOCC3)cc2)CC1	i	-10%
77	Cc1cc(/C=C/C(=O)O)c(C)n1-c1ccc(Cl)cc1	i	-4%
78	COc1ccc(-c2nnn(CC(=O)N(CC3CCCO3)C(C(=O)NC(C)(C)C)c3ccco3)n2)cc1OC (stereo not given)	-14%	-10%
79	CN(C)c1ccc(S(=O)(=O)N(C)C)cc1NC(=O)Cc1cccc2ccccc12	-2%	-17%
80	CCC(CO)N=CC1=C(O)C(C(=O)c2ccccc2)CCC1=O (stereo not given)	·	6%
81	CC(C)c1ccc(NC(=O)C2(C)Cc3ccccc3C(=O)O2)cc1 (stereo not given)	-16%	-13%
82	O=C(Nc1ccccc1Br)c1ccc2nccnc2c1	-11%	-10%
83	O=C(COc1ccc(Cl)cc1)NNC(=O)c1ccc(=O)[nH]c1	-14%	-9%
84	CCOC(=O)CC(=O)CSc1ncc(C(=O)OCC)c(N)n1	·	4%
85	Cn1ccnc1C(O)c1ccco1 (stereo not given)	?	-2%
86	CCc1nc2ccc(C(=O)Nc3cccc(OCC(=O)N(C)C)c3)cn2c1N(C)C(=O)c1cccc(OC)c1	34%[activator]	6%
87	Nc1nc(-c2ccccc2)c(CC(=O)O)s1	-14%	-11%
88	Cc1ccc(N2C(=O)[C@@H]3[C@H](C2=O)C2c4ccccc4C=CN2[C@@H]3C(=O)c2ccco2)cc1 (stereo not given in full)	·	14%
89	CC(OC(=O)Cc1ccc(Cl)cc1)C(=O)NC1CCCCC1C (stereo not given)	-11%	-10%
90	Brc1ccc2[nH]c3c(c2c1)CCC3	-10%	8%
91	Cc1ccc2nc(SC(C)C(=O)N3CCCCC3)[nH]c2c1 (stereo not given)	-10%	-16%
92	COCCNC(=O)CN(c1cc(Cl)ccc1OC)S(=O)(=O)c1ccc(C)c([N+](=O)[O-])c1	-27%	-10%
93	Cc1cc(NC(=O)C(C)C)ncc1NC(=O)Cc1ccccc1	-23%	-9%
94	COc1ccc(OCc2nc3ccccc3n2C(C)C)cc1	-2%	-13%
95	COc1cccc(NC(=O)CN(C)C(=O)c2cc(S(=O)(=O)NCc3ccccc3)ccc2C)c1	i	-17%
96	O=C(Nc1ccc(Cl)cc1)C1Cc2c(-c3ccccc3)ccnc2O1 (stereo not given)	i	-16%

# Exported field by field: 3 of the compounds above.
90: Brc1ccc2[nH]c3c(c2c1)CCC3
  VACV mCherry inh: -10%; VACV Venus inh: 8%

95: COc1cccc(NC(=O)CN(C)C(=O)c2cc(S(=O)(=O)NCc3ccccc3)ccc2C)c1
  VACV mCherry inh: i; VACV Venus inh: -17%

89: CC(OC(=O)Cc1ccc(Cl)cc1)C(=O)NC1CCCCC1C (stereo not given)
  VACV mCherry inh: -11%; VACV Venus inh: -10%

# Additional compounds follow:
cpd	compound	VACV mCherry inh	VACV Venus inh
97	CCOC(=O)c1c(NC(=O)COc2ncnc3ccccc23)sc(C(C)=O)c1C	i	-20%
98	COc1ccccc1CC(=O)N1CCCC1	-13%	5%
99	COC(=O)CN1CCN(C(=O)c2ccc(F)cc2)c2ccccc2C1	i	-15%
100	COc1ccc(CCNC(=O)Cn2nnc(-c3ccc(N(C)C)cc3)n2)cc1OC	i	-13%
101	CS(=O)(=O)NCc1ccc(C(=O)NCc2ccccc2)cc1	i	-9%
102	N#C/C(=N/Nc1ccccc1F)C(=N)N1CCOCC1	i	-12%
103	FC(F)(F)c1ccc(CSc2nccn2-c2ccccc2)cc1	-7%	-17%
104	O=C(O)C1CCN(C(=O)CSc2nc3ccccc3c(=O)n2-c2ccc(Cl)cc2)CC1	-2%	5%
105	CCCn1c(SCC(O)c2ccccc2)nc2ccccc21 (stereo not given)	-11%	-16%
106	S=C(NCCc1ccccc1)N1CCn2cccc2C1c1ccncc1 (stereo not given)	i	2%
107	CC(Oc1ccc(Cl)cc1)C(=O)Nc1ccccc1C(=O)N1CCOCC1 (stereo not given)	-11%	-2%
108	O=C(CN1CCN(Cc2ccccc2)CC1)NC(=O)NCc1ccco1	-3%	-12%

# Complete entries from above:
# S=C(NCCc1ccccc1)N1CCn2cccc2C1c1ccncc1 (stereo not given) in the list: VACV mCherry inh = i; VACV Venus inh = 2%
# O=C(CN1CCN(Cc2ccccc2)CC1)NC(=O)NCc1ccco1 in the list: VACV mCherry inh = -3%; VACV Venus inh = -12%

# From PubChem BioAssay

# Not a hit list. Share with any hit: about 0.86%.
